Bioassay records (PubChem BioAssay)
PABP FP inh: blocks human PABP binding to poly(A) RNA; P11940; fluorescence polarization; inhibition, % at 35 µM; hit rate 1% among 290,000;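 active = 50% or more with normal probe brightness, or confirmed in later tests; about a fifth of its hits are not listed in these tables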;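 also: calls also rest on retests at 20 µM and on dose response follow-up; controls were probe without protein and protein plus probe with vehicle; some compounds called inactive have numbers as strong as hits; many hits fall short of the cut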
MT1-MMP act inh: inhibitors of human MT1-MMP activation. P50281. HT1080 RFP-PRO-GFP cells, GFP/RFP ratio fluorescence, overnight; percent of plate control window, DMSO zero. GFP/RFP ratio change, % at 20 µM. hit rate 0.061% among 360,000;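 active = GFP/RFP ratio change of at least 30% with cell ATP level not reduced by more than half and red fluorescence within 50% of control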; also: strong numbers were not always called active
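Read-out: GFP/RFP fluorescence ratio; Test system: RFP-PRO-GFP reporter HT1080 cells; Compound dosing: single-point 20 µM compound, 1% DMSO; Times: overnight compound exposure at 37 °C.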
CSC inhib: blocks cancer stem cells; cancer stem cell-like cells viability, luminescence; inhibition, % at 7.5 µM; hit rate 1.1% among 300,000; AID 2717;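 active = mean at 75% or more and at least half the replicates too; tested in HMLE shEcad cells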;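 also: 0% = median of negative and 100% = median of positive control wells; the first replicate is given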
UUG fidelity: modulators of start codon recognition fidelity in yeast; activity score, % at 18.7 µM; S. cerevisiae UUG-firefly luciferase reporter, luminescence/redox ratio; hit rate 0.13% among 350,000;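 active = replicate mean at a twofold rise or more, about +100% in these data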;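 also: firefly luciferase made from a UUG start codon reports start codon fidelity; reporter light over untreated wells divided by growth signal over untreated wells; some hits fall short of that in this replicate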
Env fusion inh: blocks HIV Env-driven cell-cell fusion | hit rate 1.1% among 360,000 | AID 651610 | HeLa-JRFL Env/CEM21 cell fusion, luciferase | inhibition, % at 12.3 µM;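 active = mean replicate inhibition score of at least 50 and every replicate individually at or above 50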;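 also: 0% = plate neutral controls and 100% = maraviroc near 300 nM; one replicate is shown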
Rce1 inhib: blocks yeast Ras-converting enzyme; hit rate 0.27% among 290,000; calls only; Q03530; yeast membranes, quenched prenylated peptide cleavage fluorescence;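 active = fall in fluorescence gain of 50% or more versus controls, with final raw signal at or below 3038400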;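 also: plate controls were neutral control wells for no effect and wells lacking membranes for full effect; tested at 10 µM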
Target sequence (Q03530 whole entry, looked up): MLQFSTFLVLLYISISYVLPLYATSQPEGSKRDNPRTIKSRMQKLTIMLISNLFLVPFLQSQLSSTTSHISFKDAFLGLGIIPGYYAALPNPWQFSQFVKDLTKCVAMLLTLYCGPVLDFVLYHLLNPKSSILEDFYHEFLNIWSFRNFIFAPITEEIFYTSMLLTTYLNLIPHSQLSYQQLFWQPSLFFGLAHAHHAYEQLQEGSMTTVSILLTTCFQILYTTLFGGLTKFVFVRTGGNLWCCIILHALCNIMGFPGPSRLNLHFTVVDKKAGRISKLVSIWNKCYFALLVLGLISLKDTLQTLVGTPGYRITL
eIF4H FP inh: inhibitors of RNA binding by human eIF4H; eIF4H fluorescence polarization binding assay; inhibition, % at 35 µM; hit rate 0.94% among 290,000;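 active = 50% or more with normal probe brightness, or confirmed in later tests; about a fifth of its hits are not listed in these tables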;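 also: calls also rest on retests at 20 µM and on dose response follow-up; 0% = protein and probe with vehicle and 100% = probe without protein; strong numbers were not always called active; many hits fall short of the cut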
eIF4H FP inh retest: second read-out of eIF4H FP inh, no call of its own (marks repeat the call); inhibition, %; compound at 20 µM; confirmation average;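 mean of two retest wells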
PABP FP inh retest: second read-out of PABP FP inh, no call of its own (marks repeat the call); inhibition, %; compound at 20 µM; confirmation repeats;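 mean of two retest wells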
MT1-MMP act inh RFP: further read-out of MT1-MMP act inh, marked with its call; RFP signal change, %; measured here: RFP expression control read;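 0 = vehicle wells; hits needed this value within 50% of zero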
Numbers without * were called inactive; i = inactive; nt = not tested or not shown; + = active, no number; & = joins results of further samples. Not all compounds are listed; the hit share may differ from the screen's.

The opening 3 compounds as a preview:
SMILES	PABP FP inh	MT1-MMP act inh	MT1-MMP act inh RFP	CSC inhib	UUG fidelity	Env fusion inh	Rce1 inhib	eIF4H FP inh	others
COc1ccc(CCN2C(=S)N(c3ccc(Cl)cc3)C(=O)C2CC(N)=O)cc1OC (centres undefined)	1	8	-1	13	-17	-20	i	-14
O=C(CN1CCN(C(C(=O)Nc2cc(C(F)(F)F)ccc2Cl)c2ccccc2)CC1)NC1CC1 (centres undefined)	nt	-1	-17	nt	-30	12	nt	nt
CCOC(=O)N1CCN(C(=O)CCn2c(=S)[nH]c3cc(OCC)c(OCC)cc3c2=O)CC1	2	nt	nt	-8	nt	nt	i	0

Main list, repeating the preview:
SMILES	PABP FP inh	MT1-MMP act inh	MT1-MMP act inh RFP	CSC inhib	UUG fidelity	Env fusion inh	Rce1 inhib	eIF4H FP inh	others
COc1ccc(CCN2C(=S)N(c3ccc(Cl)cc3)C(=O)C2CC(N)=O)cc1OC (centres undefined)	1	8	-1	13	-17	-20	i	-14
O=C(CN1CCN(C(C(=O)Nc2cc(C(F)(F)F)ccc2Cl)c2ccccc2)CC1)NC1CC1 (centres undefined)	nt	-1	-17	nt	-30	12	nt	nt
CCOC(=O)N1CCN(C(=O)CCn2c(=S)[nH]c3cc(OCC)c(OCC)cc3c2=O)CC1	2	nt	nt	-8	nt	nt	i	0
O=C(OCc1c(Cl)nc2sccn12)c1cc2c(s1)CCCC2	-8	1	6	-7	9	nt	i	4
NC(=O)CCC(NS(=O)(=O)c1ccc(Cl)cc1)C(=O)NCc1ccccc1Cl (centres undefined)	-11	0	-2	-12	7	-39	i	-11
O=C(CSc1nnc2ccccn12)NCc1ccc2c(c1)OCO2	6	3	7	-18	nt	-3	i	0
Cn1c(=NC(=O)c2cnccn2)sc2ccccc21	4	9	5	21	-7	-159	i	10
O=c1ccn2c(n1)SC(c1ccccc1)C2 (centres undefined)	nt	3	-2	nt	-20	-13	nt	nt
Nc1c(C(=O)NCc2ccc3c(c2)OCO3)c2nc3ccccc3nc2n1CCCN1CCOCC1	2	-2	0	3	nt	nt	nt	-9
COC(=O)CSc1nc(C)cc(C(F)(F)F)c1C#N	-10	-4	3	6	-19	nt	i	6
CSCCC(NC(=O)COc1ccccc1)C(=O)N1CCN(c2ccccc2O)CC1 (centres undefined)	nt	1	0	0	-8	nt	i	nt
CSc1ccc(C(=O)C2CCCN(C(=O)c3cccnc3SC)C2)cc1 (centres undefined)	-10	2	-3	-22	4	5	+	4
CC(=O)c1c(O)cc(=O)oc1-c1ccc(C)cc1	nt	-1	5	-13	nt	6	i	nt
COc1cc(OC)cc(OCC(O)Cn2ccnc2C)c1 (centres undefined)	3	1	4	-5	2	-127	i	2
COCc1nnc(NC(=O)C2CCN(C(=O)c3ccco3)CC2)s1	-1	1	2	-6	-12	-2	i	-14
COc1ccc(-n2c(C)cc(/C=C3\C(=N)N4N=C(CC(=O)N5CCOCC5)SC4=NC3=O)c2C)c(OC)c1	14	-19	-5	1	-17	3	i	15
CCOc1ccc2oc(C(=O)OCC(=O)N3C(C)CCCC3C)c(C)c2c1 (centres undefined)	nt	0	-6	19	-7	-13	nt	nt
CCOc1ccc(N=C2NC(=O)CS2)cc1	8	-2	2	-7	-15	-16	i	4
CC(=O)N1CCCC(C(=O)c2ccc(Oc3ccccc3)cc2)C1 (centres undefined)	-3	-15	-17	-14	6	17	i	0
COc1cccc(NC(=O)CS(=O)(=O)c2cn(CC(=O)N3CCOCC3)c3ccccc23)c1	0	2	0	-10	nt	5	i	0
FC(F)(F)c1cccc(Cc2noc(CN(Cc3ccccn3)CC3CCCO3)n2)c1 (centres undefined)	3	-1	-8	-8	-24	16	i	5
C=Cc1ccc(Cn2c(C)c(C(=O)NCc3cccc(C)c3)sc2=O)cc1	nt	6	-1	nt	-15	-10	nt	nt
Cc1cc(OC(=O)c2cccc(F)c2)c([N+](=O)[O-])c(=O)[nH]1	2	0	4	0	-13	1	i	-3
COc1cc(C(=O)N(CCN(C)C)CC2CCCN(Cc3ccccc3F)C2)ccc1C (centres undefined)	19	2	0	5	-13	-18	i	26
COc1ccc(/C(O)=C2/C(=O)C(=O)N(CCN(C)C)C2c2cccnc2)cc1C (centres undefined)	6	2	1	-12	nt	9	i	4
CN1CCN(C(=O)C2=C[C@H](C3CC3)C[C@H](OCc3ccc(CO)cc3)O2)CC1	nt	2	6	-8	-16	1	i	nt
CC(NC(=O)CSc1nc2ccccc2n1C)c1ccccc1 (centres undefined)	10	1	1	-11	-4	0	i	-4
CC1Cc2ccccc2N1C(=O)CN(C)S(=O)(=O)c1cccc2cccnc12 (centres undefined)	2	-1	5	16	-3	18	i	3
Cc1nc([N+](=O)[O-])cn1CC(=O)c1ccccc1	8	1	4	0	-11	6	i	0
O=C(NC(=S)Nc1ccc(Br)c(Cl)c1)C1CC1	2	0	3	-17	-36	-13	i	4
CCOc1ccc(N(C(C)C(=O)N/N=C(\C)C(C)(C)C)S(C)(=O)=O)cc1 (centres undefined)	12	4	6	-6	nt	1	i	-4
COc1ccc(/C=N\NC(=O)C2COc3ccccc3O2)cc1O (centres undefined)	2	1	-3	41	nt	-3	i	-5
CC(=O)Nc1ccc(NC(=O)C(C)OC(=O)CN2C(=O)C3CCCCC3C2=O)cc1 (centres undefined)	nt	0	4	nt	-24	5	nt	nt
Cc1ccc(N(CC(=O)Nc2cc(Cl)ccc2Oc2ccccc2)S(C)(=O)=O)cc1C	-12	-13	-16	11	-8	nt	i	-2
COc1ccc(S(=O)(=O)NCCSCc2ccco2)cc1OC	22	0	5	-4	4	nt	i	20
C[C@@H]1CN([C@H](C)CO)C(=O)CCCn2nncc2CO[C@@H]1CN(C)S(=O)(=O)c1ccccc1F	nt	4	3	nt	-22&-15	4	nt	nt
COc1ccc(C(=O)[C@@H]2CC[C@](C)(C(=O)O)C2(C)C)cc1	nt	4	5	-8	-9	22	i	nt
Cc1cc(=O)[nH]c(N/N=C/c2c(C)nn(-c3ccccc3)c2Cl)n1	6	2	-9	4	nt	-29	i	-11
O=C(CN(c1ccccc1)S(=O)(=O)c1ccccc1[N+](=O)[O-])Nc1cccnc1	10	-1	1	nt	-8	3	i	-5
Cc1ccc(CNC(=O)c2ccccc2-n2cnnn2)cc1	-11	1	0	-7	nt	-4	nt	-12
Nc1ncnc2nn(C3OC(CO)C(O)C3O)nc12 (centres undefined)	nt	-2	-3	nt	-7	24	nt	nt
COCCNC(=O)C1CCC(=O)N(c2ccc(OC)cc2)C1c1ccc(OC)c(OC)c1 (centres undefined)	2	-4	1	8	-32	-24	i	1
CCOC(=O)c1nnc(-c2ccc(C)cc2)nc1Sc1ccc(Cl)cc1	4	-14	-10	5	-19	nt	i	-3
CCCNC(=O)C(Cc1ccccc1)NC(=O)c1ccccc1 (centres undefined)	nt	1	4	-13	-10	-33	nt	nt
CCOC(=O)N1N=C(C)CC1(O)c1ccc(Cl)cc1 (centres undefined)	0	0	6	-1	-11	4	i	3
O=C(Nc1cccnc1)c1cc(-c2cccs2)on1	6	1	4	20	-11	-19	i	1
CC1(C)CC(NC(=O)C(=O)NCCc2ccccc2)CC(C)(C)N1	-2	-2	-3	-12	-28	2	i	5
CC(C)c1cccc(-c2csc(C(O)c3ccco3)n2)c1 (centres undefined)	nt	0	-1	nt	-16	-24	nt	nt
CCCn1c(=O)c(C(=O)NNC(=O)c2ccc(Cl)cc2Cl)c(O)c2ccccc21	-7	3	6	29	24	3	i	14
COc1c(Cl)ccc(Cl)c1C(=O)NC(=O)N1CCOCC1	11	3	4	-5	-3	8	i	-1
C=CCNC(=O)/C(=C/c1ccccc1OCC)NC(=O)c1ccccc1	5	3	5	6	nt	-5	i	-9
COc1cccc(NC(=O)c2cnc(NS(=O)(=O)c3ccccc3)nc2)c1	nt	3	3	nt	-2	-23	nt	nt
COc1ccc(/C=C/C2=CC(C)(C)NC(=S)N2)cc1OC	-5	3	-2	-1	nt	-15	i	12
CCCc1cc(=O)n2[nH]c(NCc3ccccc3F)nc2n1	-1	4	1	3	-26	-12	i	-6
Cc1cccc(OCCCC(=O)NNC(=O)c2ccc(F)cc2)c1	nt	-4	2	-13	-11	4	nt	nt
CCOC(=O)c1nnn(-c2nc(N3CCCC3)nc(N3CCCC3)n2)c1-c1ccccc1	-3	9	-8	18	-19	-65	i	-6
CN1/C(=C/C(=O)c2ccc(Cl)cc2)Sc2cc3c(cc21)OCO3	-2	-23	4	-1	nt	-67	i	-7
CCCN1C(=O)c2ccc(C(=O)NCc3ccco3)cc2C1=O	4	-1	3	-9	-1	-34	i	-9
CCOC(=O)c1c(C)nc2sc3c(=O)n(-c4ccc(OC)cc4)cnc3c2c1-c1ccc(OC)cc1	5	-2	-2	-9	nt	nt	i	2
Cc1nc2ccc(Br)cc2c2c1CC(CO)O2 (centres undefined)	-15	1	1	-8	-4	13	i	6

Further results
SMILES	PABP FP inh	MT1-MMP act inh	MT1-MMP act inh RFP	CSC inhib	UUG fidelity	Env fusion inh	Rce1 inhib	eIF4H FP inh	others
COc1ccc(N2CC(C(=O)Nc3cc(C)ccn3)CC2=O)cc1 (centres undefined)	4	-13	-10	-7	-14	-16	i	6
COc1ccc(NC(=O)c2ccc(NC(=O)CN3CCN(c4ccccc4O)CC3)cc2)cc1	nt	13	-5	nt	-10	23	nt	nt
Cc1cc(C)n(C2CC(=O)N(c3ccc(Cl)c(Cl)c3)C2=O)n1 (centres undefined)	4	2	1	-5	-2	6	i	10
CCOC(=O)c1cc(=O)n2nc(-c3ccccc3F)nc2s1	-6	-1	-2	-3	nt	-43	i	0
Cc1ccc(S(=O)(=O)Cc2nc3ccccc3c(=O)[nH]2)cc1	2	5	4	0	-7	nt	i	-5
COc1ccc(C(=O)c2c[nH]cc2-c2ccccc2)cc1	8	1	4	nt	-10	3	i	-12
O=C(OCC(=O)N1CCOCC1)c1ccc[nH]c1=O	1	-4	-4	0	-13	19	i	-5
CCOC(=O)CSc1nc2sc(C)c(C)c2c(=O)[nH]1	-11	2	7	nt	-20	nt	i	-5
CCN(c1ccccc1)S(=O)(=O)c1ccc2[nH]cc(C(=O)NCCOC)c(=O)c2c1	4	4	-2	-3	-11	nt	i	-5
O=C(Nc1cccc(Cl)c1)c1ccc(-n2cncn2)c([N+](=O)[O-])c1	-10	6	-1	2	nt	-63	i	2
Cc1n[nH]c(=S)n1-c1cccc(Cl)c1	-6	3	5	-7	nt	-9	i	-4
O=C(Cn1nc(-c2ccccc2)c2ccccc2c1=O)NCCO	1	3	4	9	-10	7	i	-11
CCOP(=O)(OCC)C(NC(=O)Nc1c(C)cc(C)cc1C)c1ccccc1 (centres undefined)	15	1	5	-13	24	-7	i	1
Cc1ncc(CO)c(/C=N/NC(=O)c2cc(Br)ccc2O)c1O	9	-1	-5	13	nt	13	i	29
CCOc1ccc2nc(SCC(=O)Nc3cc(C)on3)c(C)cc2c1	30	-2	-3	7	-8	-1	nt	-11
CCN1C(=O)N(CC)c2cccc3cccc1c23	16	0	-5	-35	-11	6	i	52	eIF4H FP inh retest=31;PABP FP inh retest=37
O=C(NNc1nc(-c2ccccc2)c2cc(Br)ccc2n1)c1ccc(S(=O)(=O)N2CCOCC2)cc1	0	-2	-11	-14	-8	-3	i	7
CN(C(=O)c1cccc(NC(=O)Cc2ccc(NC(=O)C3CCCN(C(=O)c4ccccc4)C3)cc2)c1)C1CCCC1 (centres undefined)	nt	5	-4	nt	14	33	nt	nt
CCC1Nc2ncnc(N3CCOCC3)c2N(Cc2ccc(Br)cc2)C1=O (centres undefined)	nt	1&1	2&5	nt	0&-10	-7&-2	nt	nt
CN1CCN(CC(=O)Nc2nc3ccccc3s2)CC1	4	-1	2	-2	4	11	i	6
